Source: PubChem
Sfp PPTase inh: Sfp phosphopantetheinyl transferase inhibition | Biochemical Sfp PPTase activity, qHTS | hit rate 3.5% among 310,000 | Potency, µM, inactives show max response, negative = inhibition, usual class: inhibitors | Q9F4F7 | AID 1490; active means well fitted inhibition curve with a large enough effect; inconclusive means small, poorly fitted or top-dose-only effect, or another doubt; inactive means no such curve, though single readings can be large or run the other way;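 further: the enzyme is Sfp with the accession as filed and its product quenches rhodamine fluorescence; potency means the concentration at half of the fitted maximal effect; 0% = enzyme reaction without inhibitor and -100% = no enzyme wells; top concentration of the series not given in the record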
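After 15 min at room temperature with compound, 15 nM Sfp received 5 uM rhodamine-CoA plus 12.5 uM BHQ-2-ybbR (50 mM Hepes pH 7.6, 10 mM MgCl2). Rate came from the fluorescence difference over 30 min, ex 525/em 598 nm.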
gsp antag: antagonists of gsp mutant (McCune-Albright syndrome); gsp-mutant cells, cAMP HTRF, 30 min; control for the full effect not named in the record; AID 624288; Potency, µM (top dose mostly 76.9 µM), without a hit: at the top dose activity change, negative = inhibition, usual class: inhibitors; hit rate 0.4% among 340,000; active = falling curve of any shape with a large fitted effect; inconclusive = falling curve, mostly with a smaller effect; inactive = flat or rising curve; cell line not stated here;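 further: intracellular cAMP measured with PDE inhibitor Ro 20-1724 present during compound exposure; potency means the concentration at half of the fitted maximal effect; on the % scale 0 is the no-effect control and ±100 the full control effect; nearly all actives have a fitted effect of over 65% in size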
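HTRF cAMP measurement after 30 min RT detection following 30 min, 37C compound treatment alongside […] (added as 300 uM solution) in G418-selected cells seeded at 2000/well and grown 16–24 h.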
D2 potentiator: positive allosteric modulators of human D2 dopamine receptor; DiscoveRx D2 beta-arrestin cells, luminescence, 90 min; 100% = 57 uM dopamine signal; potentiation, % (test concentration not listed); hit rate 0.23% among 360,000; active = potentiation of 50% or more; inconclusive = 30% to 50%; inactive = 30% or less;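 further: compound concentration not given in the record; tested on top of an EC20 dose of dopamine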
Target sequence (P14416 whole entry, looked up): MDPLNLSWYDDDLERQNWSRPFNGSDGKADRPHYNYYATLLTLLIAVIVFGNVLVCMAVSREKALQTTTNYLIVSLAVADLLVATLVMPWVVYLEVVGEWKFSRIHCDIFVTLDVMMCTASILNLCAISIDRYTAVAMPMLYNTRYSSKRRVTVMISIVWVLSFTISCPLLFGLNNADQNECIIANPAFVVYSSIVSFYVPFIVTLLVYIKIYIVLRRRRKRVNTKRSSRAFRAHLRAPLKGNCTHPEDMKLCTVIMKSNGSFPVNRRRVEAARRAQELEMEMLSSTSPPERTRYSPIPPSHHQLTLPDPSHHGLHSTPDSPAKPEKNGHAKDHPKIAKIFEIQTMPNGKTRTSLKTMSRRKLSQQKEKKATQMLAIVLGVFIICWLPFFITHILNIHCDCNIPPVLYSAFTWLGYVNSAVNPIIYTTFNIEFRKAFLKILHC
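PathHunter beta-arrestin assay in DiscoveRx D2 cells. Compounds were added with an EC20 of dopamine (50 nM final) for 90 min at 37 deg C. Luminescence was read 1 h after detection reagent, with 57 uM dopamine as the EC100 control.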
Menin-MLL FL inh: inhibitors of human menin-MLL interaction, wild-type MLL peptide; AID 1766; FP activity change, % at 61.4 µM; 290,000 tested, under 10 active; Fluorescence polarization, fluorescein-MLL peptide displacement from menin; inconclusive = falling polarisation curve, or a change in total fluorescence; inactive = total fluorescence flat and polarisation flat or rising; no compound was filed as active; the % refers to the polarisation; negative = inhibition;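 further: % of control where 0% means no effect; inhibitors lower the polarisation; unlabelled MLL peptide was the positive control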
ClpP mod: qHTS Assay for Activators of ClpP; purified B. subtilis ClpP, FRET peptide cleavage, 20 min; Potency, µM (series often up to 57.5 µM), for inactives: top-dose activity change, negative = active; hit rate 1.9% among 340,000; AID 651965, 2013; active = well fitted falling curve with a large enough effect; inconclusive = small, poorly fitted or top-dose-only effect; inactive = no such curve, though single readings can be large or run the other way; further: potency means the concentration at half of the fitted maximal effect; the source files actives as falling curves though it sought activators and does not explain the sign; nearly all actives have a fitted effect of over 65% in size; many hits overshoot -100%
Target sequence (P80244 whole entry, looked up): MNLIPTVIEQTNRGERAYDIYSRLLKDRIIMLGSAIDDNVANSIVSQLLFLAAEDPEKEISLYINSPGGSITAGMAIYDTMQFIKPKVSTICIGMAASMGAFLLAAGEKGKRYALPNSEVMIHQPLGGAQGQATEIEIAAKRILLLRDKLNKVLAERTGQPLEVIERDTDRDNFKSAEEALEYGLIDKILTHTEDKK
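Purified B. subtilis ClpP, 10 microg/mL final in Tris/HCl pH8 with KCl, BSA, glycerol and Tween-20, cleaved an Abz/nitrotyrosine-quenched decapeptide. Fluorescence (ex 320, em 430) was read at 0 and 20 min at room temperature. Delta was normalized to 5.8 microM ADEP and DMSO/no-enzyme controls.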
gsp agonist: agonists of gsp mutant (McCune-Albright syndrome). gsp mutant cells, cAMP HTRF, 30 min; control for the full effect not named in the record. Potency, µM (doses to about 76.9 µM), inactives show at the highest dose activation (cAMP increase), hits mostly activators. hit rate 0.13% among 340,000. AID 624287; active = well fitted activation curve with a large enough effect; inconclusive = small, poorly fitted or top-dose-only effect, or another doubt; inactive = no such curve, though single readings can be large or run the other way; cell line not stated here;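 further: phosphodiesterase inhibitor Ro 20-1724 added with compounds to block cAMP breakdown; potency means the concentration at half of the fitted maximal effect; nearly all actives have a fitted effect of over 60% in size; about a fifth of the inactives were tested at one dose only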
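Cells stably selected in G418 were plated at 2000/well, grown 16-24 hr, then given compounds in DMSO with the PDE inhibitor […] (300 uM solution added) for 30 min at 37C; cAMP was read by HTRF.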
TRPV1 potentiator: potentiators of human vanilloid receptor 1 (TRPV1); Q8NER1; TRPV1-expressing cells, Fluo-8 calcium influx, capsaicin EC20 potentiation; host cell line not named in the record; control for the full effect not named in the record; hit rate 0.02% among 320,000; potentiation, % at 8.33 µM; active means potentiation above 80%; inconclusive means 30% to 80%; inactive means below 30%; further: 0% is about no effect
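TRPV1-expressing cells were cultured overnight at 35.5C and loaded with Fluo-8 calcium dye for 40 to 90 min at room temperature. After a 10 s baseline, compound was added and calcium influx was read kinetically for 3 min (ex 480/em 520 nm).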
* hit, by the source's call; u = inconclusive; x = not tested or not shown; & = joins results of further samples; [ ] = dose if it differs, or a comment.

SMILES,Menin-MLL FL inh,ClpP mod,D2 potentiator,TRPV1 potentiator,gsp agonist,gsp antag,Sfp PPTase inh
O=C1CN(C(=O)CSc2nc3c(cnn3-c3ccccc3)c(=O)[nH]2)c2ccccc2N1,x,-1.1%,0,9,-23%,u,x
O=C(Nc1nnc(-c2ccccc2)o1)c1nc2ccccc2s1,1.5,1.0%,-18,-13,-28%,-16%,-12%
CC1CCN(C(=O)CSc2nc3ccccc3c(=O)[nH]2)CC1,10,-0.3%,-5,2,44%[15.4 µM],-35%,-8%
Cc1cccc(NC(=O)C(C)OC(=O)CNC(=O)C2CCCCC2)c1 (stereo not given),x,-1.1%,-16,x,-51%[inhibitor],x,x
COc1cc(C)ccc1OCc1cc(C(=O)NC2CCOCC2)no1,x,-4.3%,-10,x,-36%[inhibitor],x,x
CC(C)(C)C(=O)N1CCC2CC1c1cc(Cl)ccc12 (stereo not given),x,2.1%,0,x,x,-2%,x
CCCCc1nc(C(N)=O)c2[nH]c(=O)n(-c3ccc(OC)c(OC)c3)c2n1,0.8,1.3%,-2,-7,2%,8%,16%
CCCCc1sc(-c2c(C#N)c(N)nc3c2CCCCC3)cc1[N+](=O)[O-],5.7,-1.6%,-11,5,-10%,-14%,12%
Cc1cc(C(=O)NNc2cc(Cl)ccc2Cl)no1,-0.4,-1.0%,-7,18,-8%[15.4 µM],-8%,15%
COc1ccc2cc(S(=O)(=O)NCCCN3CCOCC3)ccc2c1,0.6,-27%,-21,4,2%,8%,10%
CCc1ccc(NC(=O)CCc2ccc(C)o2)cc1,-1.4,-2.3%,-4,4,-4%,5%,3%
O=C(NC(NCc1ccccn1)(C(F)(F)F)C(F)(F)F)c1ccco1,4.8,-2.0%,-2,2,-20%,1%,-5%
COc1cc(C(=O)NCCNc2nc3c(C)cccc3cc2C#N)cc(OC)c1OC,x,4.2%,-6,x,10%,x,x
Cc1ccc(C(=O)NCC(=O)OCCCn2c(=O)[nH]c3ccccc32)cc1C,x,-2.4%,-32,x,-179%[inhibitor],x,x
COc1ccc(OCCCC(=O)NCCc2nc3ccccc3[nH]2)cc1,4.2,x,-12,-7,12%[15.4 µM],-1%,20%
CC(C)Oc1ccc(CNC(=O)Oc2ccccc2)cc1,0.7,0.4%,-3,3,21%,-4%,3%
CC(=O)Nc1nnc(SCC(=O)Nc2ccc(N3CCOCC3)c(Cl)c2)s1,3.8,1.4%,2,18,-12%,-6%,1%
CC1=CC(C)(C)N(C(=O)CCl)c2ccccc21,1.9,2.4%,-7,8,-77%[inhibitor],-4%,-13%
Cc1ccccc1NCc1ccc([N+](=O)[O-])s1,-1.7,-0.5%,-6,u,4%[15.4 µM],-6%,-8%
COc1ccc(NC(=O)C2CCCCN2N)cc1OCC(C)C (stereo not given),2.7,-17%,-18,-4,-56%[inhibitor],-4%,-16%
CSCCC(NC(=O)c1ccccc1Cl)C(=O)NNC(=O)c1csc(N2CCOCC2)n1 (stereo not given),x,-13%,-6,1,3%[15.4 µM],10%,x
O=C(O)CCC(=O)N1CCN(c2nc(-c3ccccc3Cl)c3cc(Br)ccc3n2)CC1,u,-3.5%,-4,5,30%,5%,u
Cn1c(=O)oc2cc(S(=O)(=O)Nc3ccc(C(=O)O)cc3)ccc21,x,-0.1%&0.4%,10,x,-13%,x,x
COc1ccc(C)cc1-n1nnnc1SCC(=O)NC1CC1,x,-3.0%,-9,3,0%,2%,x
CCCc1c(O)nc(SCC(=O)NCCc2ccc(OC)c(OC)c2)[nH]c1=O,6.8,-1.0%,-13,-24,-13%,9%,5%
Cc1cc(=O)[nH]c(N/N=C/c2c[nH]c3ccccc23)n1,-0.6,-4.6%,-9,-7,-9%,-11%,28µM*
COC(=O)COc1cccc(NS(=O)(=O)c2cccc([N+](=O)[O-])c2)c1,0.5,x,-4,-8,-3%[15.4 µM],-8%,8%
CC1CCCCC12NC(=O)N(CC(=O)NC1CCCc3ccccc31)C2=O (stereo not given),4.5,-0.2%,-8,-4,u,11%,-4%
CC(=O)N1CCN(CC(=O)NC(=O)Nc2ccc3c(c2)OCCO3)CC1,x,-2.0%,13,-2,-17%,7%,x
COc1ccc(N2CCN(C(C)C(=O)N3CCc4ccccc43)CC2)cc1 (stereo not given),-0.2,x,-11,0,4%[15.4 µM],2%,1%
Cc1cc(C)c(NC(=O)NC2CCCCC2)c(C)c1,2.2,-0.6%,-20,-14,u,8%,14%
Cc1cc(C)nc(SCCC(=O)Nc2cccc3ccccc23)n1,1.8,-0.9%,11,2,7%,-2%,-9%
C=CCC1c2cccc(C(=O)O)c2C(=O)N1c1cccc(OC)c1 (stereo not given),4.4,-3.6%,-4,u,-78%[inhibitor],1%,2%
CCN(CC)CC(=O)Nc1cc(N(C)C)nc2ccccc12,0.7,x,-7,-1,6%[15.4 µM],2%,50µM*
Cc1ncc([N+](=O)[O-])n1CC(=O)Nc1cc(Cl)ccc1Cl,0.6,0.4%,-13,-4,u,14%,-4%
O=[N+]([O-])c1ccc2c(c1)C(=NO)c1cc(F)ccc1-2,x,0.5%,15,x,u,-12%,x
COc1ccc(CNC(=O)C(NS(=O)(=O)c2cccc3nsnc23)C(C)C)cc1 (stereo not given),x,0.3%,-9,8,1%,-8%,-1%
CC[C@]12c3[nH]c4cc(-c5ccco5)ccc4c3CCN1C(=O)[C@@H](CC(=O)NCCN1CCOCC1)C[C@@H]2C(=O)N1CCN(C(=O)C2CC2)CC1,x,4.2%,-4,x,x,3%,x
O=C(NCCN1CCN(C(=O)c2cccs2)CC1)C(=O)Nc1ccc(Br)cc1,-0.9,-3.4%,-21,-5,-1%,-5%,9%
Cc1ccc(S(=O)(=O)N2[C@@H](c3ccccc3)C(C(=O)O)=CC[C@H]2c2ccc(Cl)c(Cl)c2)cc1,x,-0.7%,-8,-14,21%,-16%,x
COc1ccc(CNC(=O)c2ccc(S(=O)(=O)N3CC(C)CC(C)C3)cc2)cc1OC (stereo not given),x,0.8%,-20,x,-22%,-22%,x
Cc1nc2ccccn2c1C(=O)N=Nc1c(O)[nH]c2ccccc12,-1.2,4.4%,-8,22,85%[15.4 µM],5%,-18%
CCOC(=O)C1CCN(c2c(NCCN3CCN(c4ccccc4)CC3)c(=O)c2=O)CC1,-0.4,0.8%,-7,13,u,0%,3%
O=C(COC(=O)/C=C/c1ccccc1Cl)NCCc1ccc(Cl)cc1Cl,4.8,3.5%,-4,0,-2%[15.4 µM],10%,19%
O=C1Nc2ccccc2/C1=C/c1cccnc1,-0.3,-1.5%,-2,13,-5%,3%,4%
CCCCC(O)(CCCC)C(=O)NNc1ccccc1,0.0,-0.2%,6,2,0%,-10%,23%
Cc1ccccc1N1CCN(C2CCCN(C(=O)c3cn4cccc(C)c4n3)C2)CC1 (stereo not given),3.5,-8.2%,-27,-12,-39%[inhibitor],-19%,3%
CN(CCNC(=O)C1CCN(c2ncnc3c2nc2n3CCCCC2)CC1)Cc1ccccc1,-0.4,x,-7,-5,u,-8%,7%
COC(=O)[C@@H]1C[C@@]2(O)[C@H](O)[C@H](O)[C@H](O)C[C@H]2N1CC(c1ccccc1)c1ccccc1,-4.3&2.3,-2.7%,-7,-30,x,-5%,-3%&3%
CC1(C)CC(=O)C(Br)=C(O)C1,-0.1,x,-20,5,-11%[15.4 µM],-3%,3%
CCCCNC(=O)c1ccc2c(c1)N(CC)C(=O)c1ccccc1S2(=O)=O,3.0,-0.2%,-4,8,-29%,-2%,20%
CCOc1ccc(C(=O)Nc2ccc(Cl)cn2)cc1Cl,-0.5,-0.9%,-6,x,-78%[inhibitor],4%,12%
OC(c1cccs1)(c1cccs1)C1C[N+]2(CF)CCC1CC2 (stereo not given),5.3,-0.1%,-1,-3,-48%[inhibitor],2%,17%
CC(=O)c1ccc(N2CCN(S(=O)(=O)c3ccc4c(c3)CC(=O)N4C)CC2)cc1,5.0,u,-11,2,11%,6%,8%
COc1ccc(C(=O)COC(=O)C2CCN(c3ccc(C(F)(F)F)cn3)CC2)c(OC)c1,x,-6.0%,-1,-2,0%,-3%,x
CCOC(=O)C(=NC(C)CC)NNc1cccc(C(F)(F)F)c1 (stereo not given),3.9,0.7%,u,-14,-41%[inhibitor],-4%,7%
CCC(=O)Nc1cccc(NC(=O)CSc2nnc(-c3ccc(NS(C)(=O)=O)cc3)n2C)c1,-0.6,3.6%,-1,u,-53%,12%,4%
O=C(Nc1ccc(NC(=O)c2ccncc2)cc1)c1ccncc1,2.4,x,x,-11,x,x,13%
CCN(CC)C(=O)Cn1cc(S(=O)(=O)CC(=O)Nc2ccc(OC)c(OC)c2)c2ccccc21,x,0.7%,30,2,-10%[15.4 µM],10%,-3%
O=C(Nc1ccc(F)cc1)c1ccc2[nH]c(=O)c(=O)[nH]c2c1,-7.8,-19%,-9,-5,25%,2%,18%

Later entries
SMILES,Menin-MLL FL inh,ClpP mod,D2 potentiator,TRPV1 potentiator,gsp agonist,gsp antag,Sfp PPTase inh
COc1ccc(CC(=O)N2CCOCC2)cc1OC,1.5,u,0,5,22%,-3%,-5%
O=C(CSc1ccccc1)Nc1ccc(N2CCOCC2)cc1,1.0,-0.3%,-10,16,-16%,-4%,4%
C(=C\c1ccccc1)/CSc1nnc(-c2cccnc2)n1Cc1ccco1,0.2,-1.2%,-14,20,1%,-4%,u
CN1CCN(C(=O)C2=C[C@@H](C3CC3)C[C@@H](OCc3ccc(CO)cc3)O2)CC1,-1.8,0.2%,-13,u,26%,7%,6%
C=CCn1c(N)cc(=O)nc1SCC(=O)Nc1cccc2ccccc12,0.4,0.9%,-3,4,-4%,3%,11%
O=S(=O)(c1ccc(OCC(O)CN2CCN(c3ccccc3O)CC2)cc1)N1CCOCC1 (stereo not given),-1.5,-0.4%,1,6,-24%,-7%,10%
COc1ccc(CCC(=O)N2CCN(S(=O)(=O)c3ccc(OC(F)(F)F)cc3)CC2)cc1,x,0.4%,-14,-18,-6%,2%,x
COc1ccc(CCN2C(=NC(=O)CC(C)C)SC3CS(=O)(=O)CC32)cc1 (stereo not given),0.7,0.4%,11,-7,-12%,1%,12%
CCNCCNC(=O)c1c(O)c2ccccc2n(CC)c1=O,3.0,-9.7%,-10,22,-10%,12%,6%
